Cruzain inh noDet = blocks cruzain activity in detergent-free assay | purified cruzain, Z-FR-AMC fluorescence, no detergent | actives 2.3% (n = 200,000) | Potency, µM, without a hit: max response, negative = inhibition, most hits filed as inhibitors; active = well fitted curve in the direction sought with a large enough effect; inconclusive = small, poorly fitted or top-dose-only effect, or another doubt; inactive = no such curve, though single readings can be large; an effect the other way counts as inactive or inconclusive;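 note: plate controls were enzyme without inhibitor for no effect and buffer without enzyme for full effect; nearly all actives have a fitted effect of over 40% in size; top concentration of the series not given in the record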
Target sequence (P25779 123-467 limits assumed): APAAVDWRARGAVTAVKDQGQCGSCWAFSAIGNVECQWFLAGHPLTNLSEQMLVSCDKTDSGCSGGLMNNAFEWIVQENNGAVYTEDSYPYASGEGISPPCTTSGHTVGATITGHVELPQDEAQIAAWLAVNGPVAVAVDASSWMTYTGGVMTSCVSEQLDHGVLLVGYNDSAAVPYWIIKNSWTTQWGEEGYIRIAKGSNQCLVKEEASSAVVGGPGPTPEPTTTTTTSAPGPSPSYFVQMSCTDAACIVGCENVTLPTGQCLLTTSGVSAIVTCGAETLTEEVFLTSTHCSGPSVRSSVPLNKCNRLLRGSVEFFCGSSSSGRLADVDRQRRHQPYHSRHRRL
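Purified cruzain at 1.5 nM, pre-incubated 15 min with compound at room temperature in 100 mM sodium acetate pH 5.5, 5 mM DTT, 0.00005% Triton X-100. Reaction started with 2 uM Z-FR-AMC; AMC fluorescence increase over 60 s gives rate.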
Lassa entry inh = blocks Lassa virus binding to or entry into cells; Lassa virus pseudotype entry inhibition, cell reporter; control for the full effect not named in the record; Potency, µM (doses to about 37.9 µM), for the others: at the top dose activity change, negative = inhibition, usual class: inhibitors; actives 1.2% (n = 300,000); active means well fitted inhibition curve with a large enough effect; inconclusive means small, poorly fitted or top-dose-only effect, or effect the other way; inactive means flat fitted curve, though single readings scatter; tested in HEK293 cells; note: % is set by controls: 0 for no effect and ±100 for the full control effect; nearly all actives have a fitted effect of over 50% in size; luciferase read-out
Marburg entry inh = Marburg virus entry inhibition. Marburg virus pseudotyped entry inhibition, cell reporter; control for the full effect not named in the record; about a third of the inactives were read at about 46 µM. Potency, µM (doses to about 37.8 µM), inactives show at the top dose activity change, negative = inhibition, hits mostly inhibitors. actives 1.8% (n = 300,000); active = well fitted inhibition curve with a large enough effect; inconclusive = small, poorly fitted or top-dose-only effect, or effect the other way; inactive = flat fitted curve, though single readings scatter; tested in HEK293 cells; about a fifth of its hits are not listed in these tables; note: % is set by controls: 0 for no effect and ±100 for the full control effect; luciferase read-out
RE007 growth inh = less growth of the S. pombe RE007 Vpr strain | S. pombe RE007 Vpr strain, BacTiter-Glo ATP luminescence, 24 h; control for the full effect not named in the record | Potency, µM (doses to about 92.2 µM), inactives show top-dose activity change, negative = less growth | actives 0.21% (n = 360,000); active = well fitted falling curve with a large enough effect; inconclusive = small, poorly fitted or top-dose-only effect; inactive = no such curve, though single readings can be large or run the other way;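 note: % is set by controls: 0 for no effect and ±100 for the full control effect; nearly all actives have a fitted effect of over 50% in size; the assay follows cell death caused by Vpr and the record does not say whether a fall means rescue or toxicity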
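Fission yeast RE007 carrying one integrated HIV-1 vpr copy, seeded at OD 0.01 in PMG+AL medium with 23 nL pinned compound. Grown 24 h at 30 degrees; viability read by BacTiter-Glo luminescence after 5 min.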
Cruzain Triton = inhibitors of Trypanosoma cruzi cruzain with detergent; P25779; Potency, µM, for the others: max response, negative = inhibition, usual class: inhibitors; purified cruzain, Z-FR-AMC fluorescence, 0.01% Triton; actives 0.43% (n = 200,000); active = well fitted curve in the direction sought with a large enough effect; inconclusive = small, poorly fitted or top-dose-only effect, or another doubt; inactive = no such curve, though single readings can be large; an effect the other way counts as inactive or inconclusive;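 note: plate controls were neutral wells for no effect and buffer without enzyme for full effect; nearly all actives have a fitted effect of over 40% in size; top concentration of the series not given in the record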
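Sodium acetate buffer (100 mM, pH 5.5) containing 5 mM DTT and 0.01% Triton X-100 hosted 1.5 nM cruzain and test compound for 15 min at room temperature. Cleavage of 2 uM Z-FR-AMC was then tracked by fluorescence.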
SARS PLP yeast = blocks SARS-CoV papain-like protease in a yeast assay. Potency, µM (highest dose often 32.9 µM), without a hit: at the top dose activity, positive = growth rescue. actives 0.19% (n = 330,000). S. cerevisiae expressing SARS-CoV PLpro, growth rescue; control for the full effect not named in the record; note: 0% is about no effect; nearly all actives have a fitted effect of over 55% in size; growth read by luminescence after 48 h
NS1 function inh = inhibitors of influenza NS1 protein function. S. cerevisiae slowed by influenza A NS1, growth recovery by OD600. Potency, µM (top dose mostly 46.1 µM), without a hit: at the highest dose activity, positive = more growth. actives 0.4% (n = 270,000). AID 2326; note: actives are rising curves; nearly all actives have a fitted effect of over 50% in size
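Read-out: OD600 growth recovery of NS1-expressing budding yeast. Cells grown overnight at 30C in -URA glucose medium, washed, resuspended and diluted 1:100 in 2% galactose assay medium, pH 6.0. Same strain lacking NS1 served as positive control.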
2A StopGo = lowers the luciferase signal of an FMDV 2A StopGo reporter | human cells with a luciferase reporter of 2A StopGo recoding; control for the full effect not named in the record | Potency, µM (titrated, usually from 57.9 µM), for inactives: top-dose signal change, negative = less light | actives 1.2% (n = 410,000) | AID 1159524; active = well fitted falling curve with a large enough effect; inconclusive = small, poorly fitted or top-dose-only effect; inactive = no such curve, though single readings can be large or run the other way; tested in HEK293T cells; note: % is set by controls: 0 for no effect and ±100 for the full control effect; nearly all actives have a fitted effect of over 45% in size; luciferase light after 4 h
Numbers without * were called inactive; ? = inconclusive; nt = no result given; & = joins results of further samples; [ ] = dose if it differs, or a comment. Unless noted, calls come from the whole dose curve; as a rule, active means well fitted rising curve with a large enough effect; inconclusive means small, poorly fitted or top-dose-only effect; inactive means no such curve, though single readings can be large or run the other way. Potency is the fitted concentration of half-maximal effect.

SMILES	Cruzain inh noDet	Lassa entry inh	Marburg entry inh	RE007 growth inh	Cruzain Triton	SARS PLP yeast	NS1 function inh	2A StopGo
COc1cc(C(=O)NC(C)c2cnn(-c3ccccc3C)c2C)cc(OC)c1OC (stereo not drawn)	nt	?	15.3%[46.1 µM]	0.1%	nt	1.1%	2.6%	9.5%
C/C(CC(=O)NC1CCCCC1)=N\NC(=O)c1ccccn1	nt	20.4%	?	-14.3%	nt	1.1%	-5.3%	7.1%
COc1ccc(C2/C(=C(/O)c3ccc(F)cc3)C(=O)C(=O)N2CCCN2CCOCC2)cc1OC (stereo not drawn)	nt	nt	nt	6.1%	nt	-4.6%	10.8%	-0.4%
O=C(Nc1ccc(F)c(F)c1)c1ccc2c(c1)OCO2	1.6%	-1.9%	-10.8%	-20.4%	-3.5%	-10.3%	-7.2%	nt
CS(=O)(=O)c1ccc2nc(NC(=O)CCNC(=O)c3ccc(Cl)cc3)sc2c1	nt	13.9%[46.1 µM]	-3.6%	1.0%	nt	0.0%	nt	42.3%[activator]
COC(=O)CSc1nnc(CNc2nc(-c3ccccc3)cs2)n1C	11.5%	2.0%	?	-5.7%	-4.1%	16.4%	5.5%	-18.3%
COc1cc(C2C(N3C(=O)c4ccccc4C3=O)C(=O)N2c2ccc(C)c(C)c2)cc(OC)c1OC (stereo not drawn)	22.7%	-5.3%	7.6%	-10.1%	-1.9%	1.4%	?	-3.2%
COc1ccc(C(c2c[nH]c3ccccc23)c2c[nH]c3ccccc23)cc1O	-11.2%	nt	1.9%	nt	-2.0%	-11.9%	23.7%	nt
O=c1[nH]c(=S)n(-c2ccccc2F)c(O)c1C=Nc1ccc(N2CCOCC2)cc1	nt	-22.7%	23.0%[46.1 µM]	-7.7%	nt	-7.3%	nt	-28.9%
Cc1ccsc1C1C(C#N)=C(N)OC2=C1C(=O)CCC2 (stereo not drawn)	nt	1.7%	9.0%[46.1 µM]	-6.7%	nt	-1.2%	0.0%	-25.4%
CC(=O)Oc1ccc2c3c(c(=O)oc2c1C)CCCC3	nt	-4.2%	29.7%[46.1 µM]	4.5%	nt	-2.6%	-2.9%	-9.6%
O=C1C2C(c3ccccc3)C=CC(c3ccccc3)C2C(=O)N1c1ccccn1 (stereo not drawn)	-9.9%	0.1%	20.8%	-2.0%	-1.6%	-5.8%	-28.9%	0.2%
CC(=O)c1cc(C#N)c(Oc2ccc(Cl)cc2Cl)nc1C	nt	18.3%	4.5%	4.3%	nt	nt	nt	-14.9%
COc1ccc(NC(=O)c2cc(S(=O)(=O)N3CCCC3)oc2C)cc1	nt	nt	nt	-1.5%	nt	-1.9%	-1.5%	7.7%
COc1ccccc1C(=O)NCCn1cc(SCC(=O)Nc2nnc(C)s2)c2ccccc21	?	-14.1%	0.8%&-19.7%	5.5%	0.2%	5.2%	12.6µM*	-3.6%
Cc1ccc(NC(=O)C2CCC(CNS(=O)(=O)c3csc(C(N)=O)c3)CC2)cc1Cl (stereo not drawn)	1.0%	1.9%[46.1 µM]	nt	nt	1.3%	nt	nt	-24.0%
COc1ccc(CCN2C(=O)C3C4C=CC(C4)C3C2=O)cc1OC (stereo not drawn)	-0.7%	2.4%	8.2%	-2.4%	-0.9%	-1.8%	-3.8%	-5.8%
COc1ccc(NC(=O)C2CCCCC2)cc1S(=O)(=O)N1CCOCC1	nt	14.7%[46.1 µM]	?	8.0%	nt	-1.7%	nt	5.5%
COc1ccc(OC)c(C2C=C(C34CC5CC(CC(C5)C3)C4)NC(=S)N2)c1 (stereo not drawn)	25.1µM*	?	7.08µM*	0.0%	-2.1%	?	18.0%	-0.9%
O=C(c1ccc(O)cc1)c1ccc(C(=O)c2ccc(O)cc2)cc1	-15.8%	?	?	1.0%	1.8%	-1.1%&3.3%	3.1%&7.1%	5.4%
Cc1nc2ccc(-c3nc4ccccc4o3)cc2[nH]1	-4.0%	?	-17.0%	-11.5%	-4.5%	-40.8%	-189.8%	6.4%
COc1ccc(NC(=O)C2CCN(C(=O)c3sc4nc[nH]c(=O)c4c3C)CC2)cc1Cl	-4.1%	28.6%[46.1 µM]	nt	nt	-2.4%	nt	nt	-16.3%
O=C(CNC(=O)c1ccc(Cl)cc1Cl)OCC(=O)N1CCN(c2ccccc2)CC1	nt	-5.3%	15.9%	-18.0%	nt	-0.7%	-18.9%	?
COc1ccc(-c2csc(Nc3ncccc3C)n2)cc1	15.6%	?	?	?	-2.8%	-116.5%	15.3%	12.0%
CCn1c(=S)[nH]c2scc(-c3cccs3)c2c1=O	nt	-24.7%[46.1 µM]	-0.9%[46.1 µM]	-2.3%	nt	-3.1%	nt	14.5%
CCC(=O)Nc1ccc(C(=O)NCCCn2ccnc2)cc1	nt	0.0%	3.8%	-5.1%	nt	-0.5%	0.2%	?
C=CCOC(=O)c1c(C)nc2cc3c(cc2c1C)OCO3	-4.7%	0.5%	-7.3%	-19.6%	-5.4%	4.9%	4.1%	-0.5%
COC(=O)C1CSC(C(=O)OC)N1C(=O)Nc1ccc(Cl)cc1 (stereo not drawn)	0.3%	4.4%	?	4.8%	1.8%	-2.6%	16.9%	0.0%
COc1ccc2oc(C(=O)OCC(=O)NCc3ccc(OC)c(OC)c3)c(C)c2c1	nt	?	?	12.5%	nt	2.4%	nt	?
Cc1cc(NC(=O)CS(=O)(=O)c2c[nH]c3ccccc23)no1	nt	nt	nt	-3.8%	nt	-3.0%	6.8%	-9.6%
Cc1cc(C(=O)Nc2ccncc2)c2ccccc2n1	nt	nt	nt	10.6%	nt	-4.0%	-21.3%	22.3%
CN(C)c1ccc(CN(C(=O)c2ccc(Cl)c([N+](=O)[O-])c2)C2CCS(=O)(=O)C2)cc1 (stereo not drawn)	nt	?	11.2µM*	4.1%	nt	-0.5%	-6.5%	-15.1%
COC(=O)CSc1nnc(-c2cnccn2)n1C	11.3%	24.3%	?	9.8%	1.1%	9.2%	1.2%	4.6%
C=CCOc1ccccc1CN1CCN(CCc2ccccc2)C(CCO)C1 (stereo not drawn)	nt	?	?	-29.2%	nt	0.6%	-3.9%	-14.7%
COc1ccccc1CNc1nc(S(=O)(=O)c2ccccc2)c(Cl)s1	-8.7%	-17.4%	10.4%	-7.0%	-8.2%	11.3%	9.5%	2.8%
COc1cc(Cl)c(CNC[C@H]2O[C@@H](n3cnc4c(N)ncnc43)[C@H](O)[C@@H]2O)c(Cl)c1O	nt	nt	0.0%	1.7%	nt	15.5%	nt	-9.9%
COc1ccc(CNC(=O)CN(CC2CCCO2)C(=O)CNS(=O)(=O)c2ccccc2)cc1 (stereo not drawn)	3.2%	-14.9%	5.4%&5.4%[46.1 µM]	22.3%	0.9%	0.2%	-7.9%	-3.9%
COc1ccccc1CC(=O)N1CCN(c2ccccn2)CC1	10.6%	0.3%	5.3%	11.4%	2.1%	-0.1%	-5.8%	5.8%
O=C(c1ccc2c(c1)ncn2C1CCCCC1)N1CCC2(CC1)OCCO2	-6.6%	?	-21.9%	3.3%	-1.7%	1.2%	-11.2%	28.5%
COC(=O)C1CCN(C(=O)C2CC(=O)N(c3ccc(C)c(Cl)c3)C2)CC1 (stereo not drawn)	nt	?	20.2%[46.1 µM]	0.9%	nt	nt	nt	33.6%[activator]
O=C(CN1N=C(C(F)(F)F)CC1(O)c1ccc([N+](=O)[O-])cc1)c1ccccc1 (stereo not drawn)	-4.2%	4.1%	-8.0%	-12.2%	-8.1%	-37.7%	-35.4%	-4.6%
COc1ccc2[nH]c(C(=O)O)c(NC(=O)c3ccccc3[N+](=O)[O-])c2c1	nt	-6.7%	-0.6%[46.1 µM]	-9.0%	nt	0.8%	0.5%	1.0%
CC(=O)Nc1ccc(NC(=O)CSc2nc(N)c(NC(=O)c3ccco3)c(=O)[nH]2)cc1	nt	?	-17.8%	1.1%	nt	-4.7%	2.3%	0.0%
CC(C)n1cc(NC(=O)COc2ccccc2Cl)cn1	nt	2.9%[46.1 µM]	10.7%[46.1 µM]	0.3%	nt	-12.7%	-21.9%	22.6%
COc1ccc(CCNC(=O)C(=O)NCc2cccs2)cc1OC	nt	nt	nt	2.8%	nt	-1.3%	-7.6%	-5.6%
O=C(CCS(=O)(=O)c1ccc(F)cc1)Nc1nnc(-c2cccs2)o1	nt	7.6%	-11.8%	-6.2%	nt	3.9%	nt	-21.3%
Cc1ccc(-c2nn(-c3ccccc3)cc2/C=N/n2c(-c3cccs3)n[nH]c2=S)cc1	nt	5.5%	?	-0.5%	nt	0.7%	15.0%	-3.8%
O=C(N/N=C/c1cccc2ccccc12)C(=O)N1CCCC1	nt	-22.2%[46.1 µM]	-9.3%[46.1 µM]	-14.2%	nt	0.0%	1.7%	31.1%[activator]
NC(=O)C1(N2CCCCC2)CCN(S(=O)(=O)c2ccccc2)CC1	nt	-0.1%	-10.7%	0.6%	nt	nt	nt	-7.0%
COc1cccc(OCc2cc(C(=O)N3CCN(C4CCCCC4)C(=O)C3)no2)c1	nt	-18.0%[46.1 µM]	-27.8%[46.1 µM]	-5.4%	nt	-11.8%	-1.9%	-21.6%
COc1ccccc1N(CC(=O)NC1CCCCC1C)S(=O)(=O)c1cccs1 (stereo not drawn)	nt	4.2%	?	6.4%	nt	4.5%	nt	-0.7%
Cc1cc(C)n(CCN(C)C(=O)C2CCC(=O)N(CCN3CCOCC3)C2)n1 (stereo not drawn)	nt	0.1%	14.4%	0.2%	nt	-1.2%	3.7%	-3.3%
CC1(C)C2CCC(C2)C1(C)NC(=O)CNCC1CCCCC1 (stereo not drawn)	nt	-13.5%[46.1 µM]	8.91µM*	7.5%	nt	-1.0%	nt	-13.1%
CC(C)c1cc(-c2cc(C(=O)NCc3ccccc3)on2)nc(NCC2CC2)n1	nt	nt	nt	-2.1%	nt	-12.0%	-74.8%	-1.6%
Cc1ccccc1CNC(=O)c1ccc(CSCc2ccccc2)cc1	14.5%	?	0.4%	0.3%	-1.6%	-2.5%	-5.3%	-7.2%

Assay outcomes from PubChem.
